# Assay outcomes from PubChem.
# VDR inh: inhibitors of human vitamin D receptor | P11473 | VDR-SRC2-3 peptide fluorescence polarization, 2 h | Potency, µM, inactives show max response, negative = inhibition, most hits filed as inhibitors | actives 0.93% (n = 400,000); active means well fitted inhibition curve with a large enough effect; inconclusive means small, poorly fitted or top-dose-only effect, or another doubt; inactive means no such curve, though single readings can be large or run the other way; further: series mostly up to about 120 µM
# Target sequence (P11473 whole entry, looked up): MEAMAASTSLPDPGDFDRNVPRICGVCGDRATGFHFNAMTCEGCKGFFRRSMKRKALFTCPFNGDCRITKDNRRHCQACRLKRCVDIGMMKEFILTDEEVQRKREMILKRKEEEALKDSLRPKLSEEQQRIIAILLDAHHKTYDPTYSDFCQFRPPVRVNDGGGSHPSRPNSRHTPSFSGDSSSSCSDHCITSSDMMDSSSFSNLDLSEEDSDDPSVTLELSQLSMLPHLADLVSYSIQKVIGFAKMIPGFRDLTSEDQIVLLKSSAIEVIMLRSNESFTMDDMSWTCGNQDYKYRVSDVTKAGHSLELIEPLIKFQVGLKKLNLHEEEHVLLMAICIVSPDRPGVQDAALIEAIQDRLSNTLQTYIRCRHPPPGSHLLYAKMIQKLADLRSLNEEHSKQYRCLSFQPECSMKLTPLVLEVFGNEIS
#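 After 23 nl compound addition and a short centrifugation, plates sat for 2 hours at ambient temperature; polarization of fluorescence then indicated loss of VDR binding to peptide SRC2-3.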
# An asterisk follows results filed as active; ? = inconclusive; & = joins results of further samples. On the % scale 0 is the no-effect control and ±100 the full control effect; potency means the concentration at half of the fitted maximal effect. These rows are one share of the data (hit frequency here may not be typical).
SMILES,VDR inh
CC(C)CC(=O)NCC1(N(C)C)CCCCC1,14.2%
COc1ccc(CNC(=O)C(=O)N2CCC3(CC2)OCCN3S(=O)(=O)c2ccc(C)cc2)cc1,-1.8%
CC1CCCCN1c1nnc(N)s1 (stereo not given),25.1%
C=CCn1c(COc2cccc(C)c2)nnc1SCC(=O)NC(=O)NCc1ccco1,-6.7%
Cc1cccc(C)c1NC(=O)c1c(C)nn(-c2ccccc2)c1Cl,6.9%
CNc1cc(CSc2ccc(Cl)cc2)nc(C)n1,11.1%
COc1ccc(/C=C/C(=O)OCC(=O)N(C)CC(=O)Nc2ccc(C)cc2)c(OC)c1,5.9%
CN1C(=O)CC(N2CCC(c3nc4ccccc4[nH]3)CC2)C1=O (stereo not given),0.2%
COc1ccc(NS(=O)(=O)c2cccc(C(=O)N(C)Cc3ccc(SC)cc3)c2)cc1,8.5%
COc1cc(C(=O)Nc2cc(C(F)(F)F)ccc2N2CCOCC2)ccc1OCC(=O)N1CCOCC1,9.5%
CC(C)c1ccccc1NC(=O)COC(=O)Cc1c[nH]c2ccccc12,-7.4%
CC(=O)Nc1ccc(S(=O)(=O)N2CCC(C(=O)N[C@@H](C)C(=O)NC3CCCC3)CC2)cc1,28.1%
CC1(C)Cc2cccc(OCC(=O)Nc3cccnc3)c2O1,1.8%
COc1ccc(CN(C)C(=O)Cc2c[nH]c3ccccc23)c(OC)c1OC,-3.7%
COc1ccc(/C=C/c2ccncc2)cc1OC,3.7%
Fc1ccc(CSc2nnc(Cc3sc(-c4ccccc4)nc3-c3ccccc3)o2)cc1,0.3%
CC(=O)N(Cc1cccc(Br)c1)c1ccc(N2CCOCC2)c(Cl)c1,-11.6%
C/C(=N/NC(=O)c1ccco1)c1cccc(NC(=O)c2ccc(C)s2)c1,-22.6%
O=C(NCc1cccnc1)C1CCN(S(=O)(=O)c2cccs2)CC1,3.9%
COc1ccc(CCN2C(=O)CN(C3CCC(C)CC3)C(=O)C2c2ccc(OC(C)C)c(OC)c2)cc1OC (stereo not given),10.9%
CN(C)S(=O)(=O)c1ccc(C(=O)OCc2ccc(C#N)cc2)cc1,-3.3%
CN(CCNC(=O)c1cn(C)c2ccc(S(=O)(=O)N3CCCC3)cc2c1=O)CCc1ccccc1,18.4%
Cc1ccccc1NC(=O)CCNS(=O)(=O)c1cccc2nsnc12,4.0%
Cc1nc2cnc(Nc3ccccc3)nc2n(Cc2ccc(F)cc2)c1=O,-9.4%
CC(=O)OCC(=O)c1ccc2ccn(C(C)=O)c2c1,7.0%
SMILES,VDR inh
COc1ccccc1-c1ccc(=O)n(CC(=O)NC2CCc3ccccc32)n1 (stereo not given),0.2%
CCC12CSc3nc(Cl)ccc3N1C(=O)C(=O)N2C (stereo not given),-8.7%
CCCCC[C@H](O)CC[C@H]1[C@H](O)CC(=O)[C@@H]1CCCCCCC(=O)O,-3.0%&-2.2%
O=C(NCc1cccnc1)c1sc2cc(Cl)ccc2c1Cl,13.2%
O=C1[C@@H]2CSC(c3ccc(Cl)cc3)N2C(=O)N1c1ccccc1 (stereo not given in full),-3.4%
Cc1cc(CN2CCN(CC(=O)Nc3cc(C(F)(F)F)ccc3-n3cncn3)CC2)no1,-18.4%
CCOc1ccc(Oc2nc(NCC(C)C)nc(NC(C)(C)C)n2)nn1,11.3%
COc1ccc(C(=O)NCCNc2nc3c(C)cccc3cc2C#N)cc1OC,-2.6%
Cc1ccc(C(=O)ONc2ccc(N=NC(=O)c3ccccc3O)cc2)cc1,-4.3%
CC1CN(C)C(C)CC1NCc1ccc2c(c1)OCO2 (stereo not given),20.6%
CC1Cc2ccccc2N1C(=O)/C=C/c1cccc(F)c1 (stereo not given),4.6%
Cc1ccccc1S(=O)(=O)Cc1ccc(C(=O)NC(C)c2ccccc2)o1 (stereo not given),-13.8%
CC(C)Sc1ncc(Cl)c(C(=O)Nc2nnc(C(C)C)s2)n1,3.3%
CCOc1ccc(CCNC(=O)CN2CCN(Cc3ccccc3F)C2=O)cc1OCC,24.3%
CCn1c(SC)nnc1C1CCCN(CC(=O)Nc2ccccc2N2CCOCC2)C1 (stereo not given),-17.9%
CCOC(=O)c1ccc(NC(=S)NCCCN2CCCCC2)cc1,-8.4%
CSCC[C@H](NC(=O)[C@H](Cc1ccccc1)NC(=O)[C@H](Cc1cnc[nH]1)NC(=O)CNC(=O)[C@@H](NC(=O)[C@H](C)NC(=O)[C@H](Cc1c[nH]c2ccccc12)NC(=O)[C@H](CC(C)C)NC(=O)[C@H](CC(N)=O)NC(=O)CN)[C@@H](C)O)C(N)=O,-7.3%
Cc1cccc(OC(C)C(=O)Nc2cc(S(=O)(=O)N3CCCCC3)ccc2C)c1 (stereo not given),-7.8%
CCOC(=O)C1CCCN(S(=O)(=O)c2ccc(S(=O)(=O)N3CCCC3)cc2)C1 (stereo not given),-12.7%
CCCCCCn1c(N2CCN(c3cccc(Cl)c3)CC2)nc2c1c(=O)[nH]c(=O)n2C,2.8%
O=S(=O)(c1ccccc1C(F)(F)F)N1C=CC(C(F)(F)F)=NCC1,6.2%
Cc1cc(C)c2nc(N3CCCC(C(=O)NCc4cccc(Br)c4)C3)sc2c1 (stereo not given),-4.3%
COc1cccc(C2=NOC(C(=O)NCc3ccc(F)cc3)C2)c1 (stereo not given),-1.4%
COc1ccccc1C(=O)NC(=O)COC(=O)c1ccc([N+](=O)[O-])cc1,-6.0%
Brc1ccc(N=Cc2ccccn2)cc1,-13.0%
SMILES,VDR inh
Cc1ccc(C(=O)N2CCOCC2)cc1S(=O)(=O)N1CCCCC1,-4.4%
CCC1=C(OC(=O)N(CC)CC)N2C(=O)OC(=NCCc3c[nH]c4ccccc34)[C@]2(Cc2ccccc2)[C@H]2C1=CC[C@H]1C(=O)N(CC)C(=O)[C@H]12,8.2%
COc1ccc(C(=O)COC(=O)CCS(=O)(=O)c2ccc(C)cc2)c(OC)c1,-6.8%
CC(=O)c1ccc(N2C(=NC(=O)COc3ccccc3)SC3CS(=O)(=O)CC32)cc1 (stereo not given),5.1%
CC(C)(C)OC(=O)NCCCCc1cn(CC(=O)N2CCN(C(=O)OC(C)(C)C)CC2)nn1,-13.7%
C1CC1C(=NN=C(C1CC1)C1CC1)C1CC1,9.0%
CCCCN(C(=O)c1nn(C)c(=O)c2ccccc12)c1c(N)n(CCC)c(=O)[nH]c1=O,6.5%
COCc1ccc(O)c2ncccc12,-2.9%
CN(CC(=O)Nc1ccccc1Cl)C(=O)Cn1cc(C(F)(F)F)ccc1=O,-16.7%
CC(C)c1ncc(C(O)c2cccc3ccccc23)n1C (stereo not given),-7.3%
CCOC(=O)CCn1cnc2onc(-c3ccccc3Cl)c2c1=O,0.9%
CC(=O)Nc1c(N)[nH]c(=O)n(C)c1=O,1.3%
COc1ccc(CC(=O)OC(C)C(=O)c2ccc(C)cc2)cc1 (stereo not given),-10.2%
COCCCN1C(=O)C(=O)/C(=C(/O)c2ccc(S(=O)(=O)N3CCCCC3)cc2)C1c1ccc(O)c(OC)c1 (stereo not given),-1.6%
CN(C)N1C(=O)/C(=C/c2ccco2)SC1=Nc1ccccc1,-28.2%
N#Cc1ccc(CSc2nnc3ccccn23)cc1,-28.1%
CCOC(=O)c1[nH]c(C)c(C(=O)OCC(=O)N2CC(=O)Nc3ccccc32)c1C,-7.7%
CC(C)CSc1nc2ccccc2n1CC(N)=O,3.1%
Cc1ccc(Oc2ncc(CN3CC(C)OC(C)C3)s2)cc1 (stereo not given),15.5%
O=C(CSc1nc2[nH]ncc2c(=O)n1-c1ccccc1Cl)N1CCCC1,-3.8%
O=C(NCCc1ccccc1)C(=O)NCC1(c2ccccc2)CCCC1,0.6%
C#CCN(C(=O)c1ccc(OC)c(OC2CCN(C(C)C)CC2)c1)C1CCCCC1,-2.7%
Cc1ccc(S(=O)(=O)NCCNc2ccc([N+](=O)[O-])cc2)cc1,2.8%
CCC(CC)C1C(C#N)=C(N)Oc2n[nH]c(C)c21 (stereo not given),10.2%
O=C(COc1ccccc1)NCC(=O)N/N=C/c1ccco1,-4.2%

# Reprinted at random: six compounds from above
SMILES,VDR inh
CC(C)(C)OC(=O)NCCCCc1cn(CC(=O)N2CCN(C(=O)OC(C)(C)C)CC2)nn1,-13.7%
CN(C)N1C(=O)/C(=C/c2ccco2)SC1=Nc1ccccc1,-28.2%
CN(CC(=O)Nc1ccccc1Cl)C(=O)Cn1cc(C(F)(F)F)ccc1=O,-16.7%
Cc1ccc(S(=O)(=O)NCCNc2ccc([N+](=O)[O-])cc2)cc1,2.8%
CCOC(=O)CCn1cnc2onc(-c3ccccc3Cl)c2c1=O,0.9%
CCOC(=O)c1[nH]c(C)c(C(=O)OCC(=O)N2CC(=O)Nc3ccccc32)c1C,-7.7%

# More results follow.
SMILES,VDR inh
CC(C)OC(=O)CN1C(=O)S/C(=C/c2ccc(N3CCCCC3)o2)C1=O,-84.4%
O=C(O)C1C2C=CC(C2)C1C(=O)N1CCc2ccccc21 (stereo not given),0.5%
CC(C)(C)N(Cc1nc(-c2ccccc2)no1)C(=O)c1ccc2c(c1)OCO2,5.9%
COCCNC(=O)C(OC(=O)c1ccco1)c1ccccc1F (stereo not given),12.2%
CCOCCc1nnc(NC(=O)CSc2ccccc2)s1,-8.8%
COC(=O)CCCC(=O)N1CCCC(CNS(=O)(=O)c2ccc(OC)cc2)C1 (stereo not given),?
N#Cc1ccc(CN2CC[C@@]3(CCCN(C(=O)c4ccncc4)C3)C2)cc1,4.9%
COc1ccccc1CNC(=O)c1cc2cccc3c2n1CCS3,-0.7%
CCOC(=O)C1CCN(C2CC(=O)N(c3ccc(OCC)cc3)C2=O)CC1 (stereo not given),4.9%
O=C(CSc1nc2ccccc2o1)NCC(=O)c1ccccc1,-8.2%
COc1ccc(-c2nc(SCCOc3ccccc3Cl)n3[nH]c(=O)cc3n2)cc1,1.2%
Nc1nc2c(ncn2C2CC(O)C(CO)O2)c(=O)[nH]1 (stereo not given),-2.3%
CC(Oc1ccccc1F)C(=O)/C=C/N(C)C (stereo not given),0.3%
COc1cccc(CNc2nnnn2C)c1,-13.3%
CO/N=C(\Cn1ncc(N2CCCC2)c(Br)c1=O)c1ccc(Cl)cc1,-13.3%
O=C(O)c1ccccc1C(c1ccccc1)c1ccccc1O (stereo not given),-9.5%
COc1ccnc(CN(C)C(=O)C2CCC(=O)N(Cc3cccc(C(F)(F)F)c3)C2)c1 (stereo not given),-15.1%
CC1CCN(C(CNS(=O)(=O)c2ccccc2)c2ccccc2)CC1 (stereo not given),-12.9%
COc1ccc(CCN2CCCC(CN(C)Cc3cc(Cl)c(O)c(OC)c3)C2)cc1 (stereo not given),-11.1%
COCCCNc1nc(=S)[nH]c2cc(OC)c(OC)cc12,8.7%
O=C(Nc1ccccc1F)Nc1cccc2ccc(O)cc12,-18.9%
Cc1nn(Cc2cccc(C(=O)NN)c2)c(C)c1Cl,-14.4%
O=C1CCCC(=O)C1C1c2ccccc2CCN1C(=O)CCl (stereo not given),11.6%
Brc1cccc(CN2CCCCCCC2)c1,3.2%
COCCn1cnc2c(c1=O)c1nc3ccccc3nc1n2/N=C/c1cccc(OC)c1,7.3%

# In another format: entries from further up
VDR inh	mol
4.9%	CCOC(=O)C1CCN(C2CC(=O)N(c3ccc(OCC)cc3)C2=O)CC1 (stereo not given)
-8.2%	O=C(CSc1nc2ccccc2o1)NCC(=O)c1ccccc1
1.2%	COc1ccc(-c2nc(SCCOc3ccccc3Cl)n3[nH]c(=O)cc3n2)cc1
-2.3%	Nc1nc2c(ncn2C2CC(O)C(CO)O2)c(=O)[nH]1 (stereo not given)
0.3%	CC(Oc1ccccc1F)C(=O)/C=C/N(C)C (stereo not given)
-13.3%	COc1cccc(CNc2nnnn2C)c1

# Additional compounds:
SMILES,VDR inh
CCOc1ccc(NC(=O)Cn2nnc(-c3ccccc3F)n2)cc1,10.6%
N#Cc1cccc2c1-c1ccccc1/C2=N/NC(N)=S,-9.8%
Cc1csc(NC(=O)CCn2c(=O)oc3ccc(Cl)cc32)n1,-2.0%
CCOC1(/N=C(\C)NS(=O)(=O)c2ccc(Cl)cc2)C(C)=CC(=O)C=C1C,-3.6%
O=S1(=O)CCC(n2nccc2-c2ccccc2)C1 (stereo not given),15.4%
CCc1ccc2oc(C(=O)NC3CCS(=O)(=O)C3)cc(=O)c2c1 (stereo not given),-10.5%
Cc1cc(N2CCCC2)nc2c(C)cccc12,-7.4%
COc1ccc(C2C(=O)N(C3CCCCC3)CC(=O)N2C2CCCCC2)cc1 (stereo not given),5.0%&2.1%
NC(=O)CCS(=O)(=O)CCN1CCCCC1,2.2%
CC(C)c1ccc(Nc2ncnc3c2nc2n3CCCC2)cc1,16.2%
O=c1[nH]c(C2CCN(S(=O)(=O)c3ccccc3F)CC2)nc2c1nnn2Cc1ccc(F)cc1,2.4%
COc1ccc(S(=O)(=O)N2CCOCC2)cc1NC(=O)COC(=O)CCS(=O)(=O)c1ccc(C)cc1,-7.7%
CCN1CCCC1CNC(=O)Cn1ncc2c(=O)oc3ccc(C)cc3c21 (stereo not given),4.4%
C#Cc1cccc(NC(=O)CSc2nnc(-c3ccc(C(F)(F)F)cn3)o2)c1,-16.9%
COc1ccc(C)cc1NC(=O)CN(C)S(=O)(=O)c1cnc[nH]1,-3.7%
COC(=O)CCn1cnc2onc(-c3cc(F)cc(F)c3)c2c1=O,-1.3%
Cc1noc(C)c1-c1nc(N2CCOCC2)c2ccccc2n1,-4.8%
O=S(=O)(c1cc(C(F)(F)F)ccc1Cl)N1CCN(c2ncnc3ccccc23)CC1,-5.3%
COc1ccc(CNC(=O)c2ccc(Br)o2)cc1,-13.2%&-12.0%
COc1ccc(C(F)(F)F)cc1N/C=C/c1nnnn1-c1ccc2ccccc2c1,13.3%
Cc1ccc(-c2csc(N3CCN(CCCn4c(-c5ccncc5)nc5ccccc54)CC3)n2)cc1,-6.2%
CN(C)c1nc(N)nc(CSc2nnnn2C)n1,3.6%
C=CCC1(O)C(=O)Nc2ccccc21 (stereo not given),8.6%
Cc1cc(C)n(C(=O)c2cccc(S(=O)(=O)N3CCCCC3)c2)n1,-3.3%
C=CCN(c1ccccc1OC)S(=O)(=O)c1cccc(C(=O)NC2=NCCS2)c1,-7.7%
